GALR2 agonist: agonists of human galanin receptor 2 (GALR2) | O43603 | GALR2-expressing cells, agonist activation read-out | activation, %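 (tested at 5 µM)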 | 140,000 compounds, 0.48% hits;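 active means above mean plus 3 SD of all compounds, about 5% in these data, not always enough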;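 further: 0% = vehicle buffer wells and 100% = reference agonist at full effect; tested in CHO reporter cells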
RGS16-Gao: regulators of human RGS16-Galphao interaction. O15492+P09471. bead-based flow cytometry RGS16-Galphao binding, fluorescence; actives lie on both sides. binding response (% of control), % at 10 µM. 220,000 compounds, 0.38% hits. AID 1441;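 active means below 25% or above 175%, edge rows of some plates excepted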;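 further: Galphao activated by GDP with aluminum fluoride before binding; 100% = wells without compound and 0% = beads without RGS; some results beyond the cut were filed as inactive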
PKD1 kinase inh: PKD1 (human) kinase inhibition | Q15139 | PKD1 kinase fluorescence polarization assay | inhibition, %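 (about 10 µM by stock and volumes)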 | 200,000 compounds, 0.056% hits;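 active means inhibition of 50% or more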;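 further: controls were vehicle for no effect and a reference inhibitor for full effect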
Target sequence (Q15139 whole entry, looked up): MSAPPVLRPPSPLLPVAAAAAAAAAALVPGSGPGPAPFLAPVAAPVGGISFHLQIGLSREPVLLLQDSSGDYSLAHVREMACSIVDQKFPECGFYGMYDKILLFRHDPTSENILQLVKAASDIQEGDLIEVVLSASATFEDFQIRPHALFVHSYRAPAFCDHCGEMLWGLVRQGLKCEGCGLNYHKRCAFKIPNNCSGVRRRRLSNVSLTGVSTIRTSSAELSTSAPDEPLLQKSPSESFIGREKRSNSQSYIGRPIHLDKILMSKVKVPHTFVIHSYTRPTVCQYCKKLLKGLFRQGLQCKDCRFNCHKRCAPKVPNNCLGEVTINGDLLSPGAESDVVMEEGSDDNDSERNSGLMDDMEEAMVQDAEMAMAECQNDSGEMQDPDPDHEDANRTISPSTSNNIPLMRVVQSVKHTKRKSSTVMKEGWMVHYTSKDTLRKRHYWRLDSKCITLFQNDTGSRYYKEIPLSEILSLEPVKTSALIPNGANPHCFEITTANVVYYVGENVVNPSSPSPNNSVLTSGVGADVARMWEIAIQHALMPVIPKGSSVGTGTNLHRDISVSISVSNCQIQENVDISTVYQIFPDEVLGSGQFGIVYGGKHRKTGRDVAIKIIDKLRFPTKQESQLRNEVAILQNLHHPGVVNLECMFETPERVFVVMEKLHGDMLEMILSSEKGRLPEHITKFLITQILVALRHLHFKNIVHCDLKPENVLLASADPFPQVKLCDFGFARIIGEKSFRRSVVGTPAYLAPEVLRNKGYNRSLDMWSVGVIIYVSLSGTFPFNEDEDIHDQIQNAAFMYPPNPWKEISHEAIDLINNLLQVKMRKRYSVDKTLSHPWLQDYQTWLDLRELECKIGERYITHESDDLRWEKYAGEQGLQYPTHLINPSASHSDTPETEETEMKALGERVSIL
HSV replic up: increases HSV replication in cells; maximum fold increase; 220,000 compounds, 0.005% hits; AID 1956; HSV replication augmentation in cells, fold increase;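 active means peak rise of 1.5-fold or more in the series; tested in PC3 cells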;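 further: first round at 10 µM; read as green reporter fluorescence; hits show the peak of a series up to 25 µM; 1 = signal of infected wells without compound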
INS promoter inh: TRM-6 insulin promoter activity inhibition | TRM-6 cells (human fetal islet line), insulin promoter-eGFP reporter, imaging; reporter expression induced with tamoxifen | inhibition, % at 2 µM | 130,000 compounds, 0.9% hits | AID 1273;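 active means inhibition above the mean plus 3 SD, with well images judged a real hit on visual review, cut at about 60% in these data, passing the limit was not always enough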
INS promoter inh cell count: recorded beside INS promoter inh, whose call it bears; normalized cell count, %; measured here: cell count, toxicity; reference of the scale not given here;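 cells exposed to compound for 48 h; stained nuclei by imaging scaled within each plate; lower means fewer cells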
HSV replic up primary fold: further read-out of HSV replic up, marked with its call; fold increase; compound at 10 µM; measured here: primary screen fold increase 10 uM; tested in PC3 cells;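 GFP signal in the first replicate; 1 = infected wells without compound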
Starred values were filed as active, the others as inactive; i = inactive; · = no result given. Not a hit list, and some 1.2% of all compounds hit somewhere here.

SMILES	GALR2 agonist	RGS16-Gao	PKD1 kinase inh	HSV replic up	HSV replic up primary fold	INS promoter inh	INS promoter inh cell count
COc1ccc(NS(=O)(=O)c2cccc(C(=O)N/N=C/c3cn(-c4ccccc4)nc3-c3ccc(OC)cc3)c2)cc1	·	93	·	i	0.85	·	·
CN(NC(=O)Nc1ccc(Cl)cc1)c1ncc(C(F)(F)F)cc1Cl	-1.0	·	0	i	0.91	-38	50
COCCCNC(=O)C1CCC(CNS(=O)(=O)c2ccc(Cl)cc2)CC1 (stereo not given)	·	100	6	i	1.1	21	118
O=c1[nH][nH]c(-c2ccccc2O)c1C(C[N+](=O)[O-])c1ccc(Cl)cc1Cl (stereo not given)	-0.7	77	-8	i	0.97	-6	68
CC(=O)c1cccc(NC(=O)C=C(C)C)c1	-0.1	101	-1	i	0.98	13	179
O=C(c1ccccc1)c1sc(N2CCCCCC2)nc1-c1ccccc1	0.5	98	3	i	1.1	·	·
CC(NC(=O)NNC(=O)c1ccncc1)(C(F)(F)F)C(F)(F)F	·	98	-5	i	1	6	119
Cc1ccc(CNC(=O)C(=O)NCC2OCCN2C(=O)c2ccc(Cl)cc2)cc1 (stereo not given)	-0.3	105	-10	i	1.1	-37	80
O=C(CC(=O)N/N=C\c1c(Cl)cccc1Cl)NCc1ccccc1	-2.2	101	-13	i	0.9	7	144
N#C/C(=N\Nc1ccc(Cl)cc1)C(N)=S	·	94	·	i	0.91	·	·
Cc1ccc(/C=N/NC(=O)CN2CCN(Cc3ccccc3)CC2)s1	·	100	·	i	1.2	·	·
Cc1nnc(C)n1/N=C/c1ccccc1	-1.7	100	1	·	·	53	54

Some values from the entries so far:
Cc1nnc(C)n1/N=C/c1ccccc1 in GALR2 agonist = -1.7
COCCCNC(=O)C1CCC(CNS(=O)(=O)c2ccc(Cl)cc2)CC1 (stereo not given) in PKD1 kinase inh = 6
CN(NC(=O)Nc1ccc(Cl)cc1)c1ncc(C(F)(F)F)cc1Cl in GALR2 agonist = -1.0
COc1ccc(NS(=O)(=O)c2cccc(C(=O)N/N=C/c3cn(-c4ccccc4)nc3-c3ccc(OC)cc3)c2)cc1 in RGS16-Gao = 93
Cc1ccc(/C=N/NC(=O)CN2CCN(Cc3ccccc3)CC2)s1 in HSV replic up primary fold = 1.2
O=C(CC(=O)N/N=C\c1c(Cl)cccc1Cl)NCc1ccccc1 in GALR2 agonist = -2.2

Additional records.
SMILES	GALR2 agonist	RGS16-Gao	PKD1 kinase inh	HSV replic up	HSV replic up primary fold	INS promoter inh	INS promoter inh cell count
O=C1CCCc2nc3c(cc21)C(O)Oc1ccccc1-3 (stereo not given)	·	98	-4	i	1	·	·
CCN(CCO)c1cc(Cl)nc(SC)n1	-4.0	158	-7	i	0.98	32	120
CN1CCN(C(=O)CC2C(=O)NCCN2Cc2ccc(-c3ccccc3)cc2)CC1 (stereo not given)	·	93	2	i	0.94	·	·
Cc1c(Cl)cccc1NC(=S)NN	·	100	4	i	0.92	-18	148
COc1cccc(NC(=O)c2ccn(C)n2)c1	1.1	23	10	i	0.84	-45	77
CN(CC(=O)Nc1cccc2ccccc12)C(=O)c1cccc(S(=O)(=O)N(C)C)c1	·	87	·	i	0.9	·	·
COC(=O)CCC(=O)NNC(=O)c1ccc([N+](=O)[O-])cc1	·	100	-4	i	0.85	-43	96
CCCCNC(=O)OCCNC(=O)Oc1cccc(C)c1	-0.8	104	6	i	0.91	·	·
COc1ccc(-c2nc3ncccn3c2Br)cc1	·	81	-4	i	0.95	·	·
O=C(O)c1ccc(/C=N\Nc2ccc(S(=O)(=O)N3CCOCC3)cc2[N+](=O)[O-])cc1	·	104	·	i	0.93	·	·
COc1ccc(S(=O)(=O)Nc2ccc(C)cc2)cc1OC	-0.6	99	-3	i	0.73	·	·
Cn1c(=O)[nH]c(=O)c2c1nc(Br)n2C/C=N/Nc1ccccc1	·	97	-6	i	0.99	-60	59
Cc1ccc(S(=O)(=O)/N=C(/Nc2c(C)n(C)n(-c3ccccc3)c2=O)c2ccc(Cl)cc2)cc1	-1.1	118	-2	i	0.99	-4	125
O=C(/C=C\c1cn(-c2ccccc2)nc1-c1ccccc1)Nc1nccs1	1.4	97	-6	i	0.65	47	123
C/C(CC(=O)Nc1cccnc1)=N\NC(=O)c1ccc([N+](=O)[O-])c(Cl)c1	-1.2	105	2	i	0.96	-86	111
O=C(Cn1ccc(=O)[nH]c1=O)Nc1ccc(C(=O)O)c(O)c1	·	100	·	i	1.4	·	·
Cc1cccc(NC2=NC(C)(C)N=C(N)N2)c1C	-2.0	113	0	i	1	0	84
CCOC(=O)CCCCC(=O)c1[nH]c(=O)[nH]c1C[n+]1ccc(C)cc1	·	98	-2	i	1	·	·
C/C(=N/Nc1cc(-c2ccccc2)nc(-c2ccccc2)n1)c1ccc(O)cc1	0.3	100	1	i	0.65	15	115
COc1ccc(N=C2SCC(c3ccccc3)=NN2C)cc1	·	95	·	i	0.92	·	·
N#CCCn1cc(C(=O)O)c(-c2cc3ccccc3o2)n1	-2.7	67	13	i	0.91	15	122
CCCCCCn1c(=O)[nH]c2c(c1=O)CCC2	·	99	·	i	1	·	·
CC1=C(C#N)C2C(/C1=N/O)C2(C)C (stereo not given)	-0.4	104	-18	i	1	·	·
CCC12OC(=N)C(C#N)(C1C)C(C#N)(C#N)C(c1ccccc1)O2 (stereo not given)	2.7	104	0	i	0.99	-67	86
COc1ccc(/C(N)=N/OC(=O)Cc2cccs2)cc1OC	-0.7	105	5	i	0.92	-2	71
O=C(NCC#CCOCc1ccccc1)c1ccccc1	-1.3	103	-11	i	1.1	-15	141
CCCCn1nnnc1SCC(=O)N1CCN(C(=O)c2ccco2)CC1	0.7	103	-1	i	0.93	-11	133
O=C(Nc1ccccc1)c1ccccc1C(=O)N1CCCCC1	·	106	-1	i	1	17	75
CCOc1ccc(C2OC34CCCCC3C(C#N)(C#N)C2(C#N)C(=N)O4)cc1OC (stereo not given)	2.2	96	0	i	1	6	166
CC(=O)Nc1ccc(N2C(=O)CC(N3CCN(Cc4ccc5c(c4)OCO5)CC3)C2=O)cc1 (stereo not given)	-0.6	123	-4	i	1.1	-6	88
O=c1c([N+](=O)[O-])cc(C(F)(F)F)cn1Cc1cccc(Cl)c1	-3.5	100	-2	i	0.87	·	·
COC1CCN(C(=O)c2ccc(OC3CCN(Cc4ccccn4)CC3)cc2)CC1	·	100	-1	i	1	·	·
CCSC1=NSC2=NC(=O)/C(=C\c3coc4ccccc4c3=O)C(=N)N12	-1.4	101	-13	i	1.2	12	156
Cc1ccc(C(=O)NCc2ccc(N3CCN(C(=O)OC(C)(C)C)CC3)cc2)cc1	-2.0	101	-10	·	·	-3	105
O=C(Nc1nnc(C2CC2)s1)c1ccc(S(=O)(=O)c2ccccc2)cc1	-1.9	101	-6	i	1.1	-56	232
Cc1ccc(NC(=S)N(CCCN2CCOCC2)Cc2ccccn2)cc1Cl	0.7	98	-9	i	1.1	-88	121
O=c1c2ccccc2c(C=Nc2cccc(O)c2)c(O)n1-c1ccc2c(c1)OCO2	1.3	100	3	i	0.88	9	111
C=CCn1c(-c2oc3nc(-c4ccccc4)cc(-c4ccccc4)c3c2N)n[nH]c1=S	0.1	99	2	i	0.95	·	·
CCc1nnc(NC(=O)c2ccc(S(=O)(=O)N(CCOC)CCOC)cc2)s1	-4.4	101	-1	i	0.89	·	·
CC(=O)Nc1ccc(NC(=O)CN(c2cccc(C(C)=O)c2)S(C)(=O)=O)cc1	·	100	-6	i	1.2	·	·
COCCCNC(=O)CNC(=S)N(Cc1ccc(F)cc1)C1CCCCC1	-0.1	101	-12	i	1.1	3	78
COc1ccc2cc3cc(C(=O)NCc4ccccn4)oc3nc2c1	-1.1	97	-14	·	·	-22	124
Fc1ccccc1C1c2cccn2CCN1C(=S)Nc1ccc(Br)cc1 (stereo not given)	·	100	-1	i	0.98	·	·
O=C(CSc1n[nH]c(-c2ccc(Cl)cc2Cl)n1)Nc1ccccn1	-2.0	103	-2	·	·	-22	114
CC12CC3CC(C)(C1)CC(Nc1nc(N4CCOCC4)nc4ccccc14)(C3)C2	·	105	·	i	0.81	·	·
CNC(=O)CSc1nccn1Cc1ccc(Cl)cc1	·	99	-9	i	0.96	9	116
O=C(COC(=O)CCCNC(=O)c1ccc(Cl)cc1)Nc1ccc(Br)cc1	-1.1	101	6	i	0.88	·	·
COc1nc(Nc2ccc(-c3nc4ccccc4o3)cc2)nc(N2CCOCC2)n1	-0.7	·	0	i	0.85	-36	57

Four of these compounds, set out differently:
Each structure is followed by: GALR2 agonist | RGS16-Gao | PKD1 kinase inh | HSV replic up | HSV replic up primary fold | INS promoter inh | INS promoter inh cell count
CNC(=O)CSc1nccn1Cc1ccc(Cl)cc1
    · | 99 | -9 | i | 0.96 | 9 | 116
COCCCNC(=O)CNC(=S)N(Cc1ccc(F)cc1)C1CCCCC1
    -0.1 | 101 | -12 | i | 1.1 | 3 | 78
O=C(CSc1n[nH]c(-c2ccc(Cl)cc2Cl)n1)Nc1ccccn1
    -2.0 | 103 | -2 | · | · | -22 | 114
COc1nc(Nc2ccc(-c3nc4ccccc4o3)cc2)nc(N2CCOCC2)n1
    -0.7 | · | 0 | i | 0.85 | -36 | 57

Further structures
SMILES	GALR2 agonist	RGS16-Gao	PKD1 kinase inh	HSV replic up	HSV replic up primary fold	INS promoter inh	INS promoter inh cell count
CCCCNc1nc2ccccc2n1CC(=O)Nc1ccc2c(c1)OCCO2	·	106	·	i	0.92	·	·
CCC(=O)Oc1ccc(-c2nc(-c3cccnc3)no2)cc1	-1.1	68	14	i	1	·	·
CC(=O)c1cc2c(cc1NC(=O)c1cccc(S(=O)(=O)N3CCN(C)CC3)c1)OCO2	·	92	5	i	0.72	·	·
CC1CCN(C(=O)c2ccc3c(Cl)c4c(nc3c2)CCCC4)CC1	·	103	-2	i	1.1	·	·
O=C(NC1CC1)C1=C[C@H](c2csc3ccccc23)C[C@H](OCc2ccc(CO)cc2)O1	·	102	·	i	1.1	·	·
O=C(COC(=O)CCC(=O)c1cccs1)NC1CC1	·	100	4	i	1	·	·
CC(=O)N1N=C(c2ccncc2)OC12CCCC2	-0.8	104	-2	i	1	i	49
CCCCN1/C(=C/c2ccc3ccccc3[n+]2CC)Sc2ccccc21	·	104	4	·	·	·	·
Cc1cc(C)nc(Nc2ncn[nH]2)n1	·	101	-2	i	0.97	·	·
COC(=O)CSc1nnc(-c2ccc3c(c2)OCO3)n1C	-0.8	128	-7	i	1	-42	139
COc1ccc(C(=O)n2nc(-c3ccccc3)nc2N)cc1OC	-1.7	98	-6	i	0.77	61	81
CCOC(=O)N1CCN(C(=O)C2CCN(S(=O)(=O)c3cc(OC)ccc3OC)CC2)CC1	·	99	-10	i	0.95	11	96
COc1ccc(NC(=O)COc2ccc3c(c2)CCC3)cc1	·	99	-1	i	1	·	·
COc1ccc(C2=CC(=O)N(Nc3ccccc3)C2=O)cc1	·	94	-2	i	0.98	·	·
COC(=O)CCCC1=CC2=C(c3ccccc3)C(=O)C(C)(OC(=O)C3CCCC3)C(=O)C2=CN1C1CCCC1 (stereo not given)	·	95	·	i	0.91	·	·
CCOC(=O)CSc1nc2sc3c(c2c(=O)n1CC)CC(C)(C)OC3	-2.5	104	-5	i	1.1	-29	51
CN(C)c1ccc(NC(=O)Nc2csc3ccccc23)cc1	·	96	·	i	0.92	·	·
Cc1cc(C)cc(Oc2ccc(NC(=O)C3CC=CCC3C(=O)O)cc2)c1 (stereo not given)	·	101	0	i	1	·	·
CCOC(=O)CSc1nnc(CNC(=O)Cc2ccccc2)n1C	-0.5	98	-8	i	1.5	·	·
COc1ccc(C(O)c2nc3ccccc3n2C)cc1OC (stereo not given)	-0.8	91	-10	·	·	18	76
CC(=O)c1c(C)nc(-c2ccc(Cl)cc2Cl)n1O	0.7	101	0	i	0.89	14	129
COc1ccc(COC(=O)C2=C(C)NC(=O)NC2c2ccc(O)c(OC)c2)cc1 (stereo not given)	-0.3	327	8	i	1.1	·	·
Cc1c(C(=O)NCc2cccs2)oc2ccc(Br)cc12	-2.1	104	-7	i	1	11	162
Cc1ccc(Cl)cc1N1CCN(CC(=O)Nc2ccc3[nH]c(=O)[nH]c3c2)CC1	-1.4	97	-9	i	1	-41	97
CCCCOC1(c2ccccc2)OC(=O)c2ccccc21 (stereo not given)	-2.8	105	9	i	0.97	·	·
CCn1c(/C=C/c2cccc([N+](=O)[O-])c2)nc2ccccc2c1=O	-3.2	129	-12	i	0.98	·	·
COc1ccccc1C(=O)O/N=C(\N)c1ccc(Cl)cc1	0.3	174	-6	i	1.1	3	43

Compound activity deposited in PubChem by several laboratories.
